# BmaI1 = BmaI1 acyl-homoserine lactone synthase inhibition – biochemical, fluorescence intensity, with counterscreen (AID 720554); inhibition, %; BmaI1 enzyme assay, fluorescence intensity; stronger effect = higher value; test concentration not given here; a few actives read low; strong numbers were not always called active; 0.4% of 12,000 active;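 active means both replicates within 2 robust z-scores of the inhibited control and a quiet counterscreen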;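 further: 0% = uninhibited enzyme and 100% = inhibited control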
# BmaI1 counterscreen = also measured in BmaI1; calls as there; inhibition, %; measured here: counterscreen; design of the counterscreen not given here;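 first of two replicates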
# An asterisk follows results filed as active. The list is partial. The share of hits here may be higher or lower than overall.
# Start of the listing, in advance:
cpd	molecule	BmaI1	BmaI1 counterscreen
1	CC(OC(=O)C1=NN(c2ccccc2)C(=O)CC1)C(=O)Nc1ccc(S(N)(=O)=O)cc1 (configuration not stated)	16	8
2	Cc1cc2nc(N3CCc4ccccc4C3)c3ccccc3n2n1	16	15
3	CCNC(=O)c1cccc(NC(=O)CCCc2nc3ccccc3c(=O)[nH]2)c1	-7	-11
4	CCCn1c(SCC(=O)C23CC4CC(CC(C4)C2)C3)n[nH]c1=O	13	4
5	Cc1[nH]c2ccccc2c1C(=O)C(C)N1CCN(C/C=C/c2ccccc2)CC1 (configuration not stated)	9	9
6	Nc1ccc(S(=O)(=O)c2ccc(N)cc2)cc1	-2	6
7	CNS(=O)(=O)c1cccc(C(=O)OCC(=O)N2CCc3ccccc32)c1	14	9

# The list itself, repeating the preview:
cpd	molecule	BmaI1	BmaI1 counterscreen
1	CC(OC(=O)C1=NN(c2ccccc2)C(=O)CC1)C(=O)Nc1ccc(S(N)(=O)=O)cc1 (configuration not stated)	16	8
2	Cc1cc2nc(N3CCc4ccccc4C3)c3ccccc3n2n1	16	15
3	CCNC(=O)c1cccc(NC(=O)CCCc2nc3ccccc3c(=O)[nH]2)c1	-7	-11
4	CCCn1c(SCC(=O)C23CC4CC(CC(C4)C2)C3)n[nH]c1=O	13	4
5	Cc1[nH]c2ccccc2c1C(=O)C(C)N1CCN(C/C=C/c2ccccc2)CC1 (configuration not stated)	9	9
6	Nc1ccc(S(=O)(=O)c2ccc(N)cc2)cc1	-2	6
7	CNS(=O)(=O)c1cccc(C(=O)OCC(=O)N2CCc3ccccc32)c1	14	9
8	CCOc1cc(N2CCOCC2)c(OCC)cc1NC(=O)c1cc(S(=O)(=O)N(C)C)ccc1Cl	9	2
9	N#CCSc1nnc(-c2ccc(Cl)cc2Cl)n1N	13	4
10	Cc1noc2nc(C(F)(F)F)cc(C(F)(F)F)c12	8	-4
11	CC(=O)Nc1ccccc1OCC(=O)N(Cc1ccccc1)C(C)C	8	3
12	CCc1ccccc1Nc1nc(N)nc(COC(=O)CSCc2c(C)noc2C)n1	11	2
13	CNC(=O)CSc1nc2cc(Cl)ccc2c(=O)n1CC1CCCO1 (configuration not stated)	16	10
14	CCC(C)(C)NC(=O)CCc1ccc(S(=O)(=O)N2CCOCC2)cc1	6	10
15	CCOc1cc(/C=N/NC(=O)c2cccnc2)ccc1OCC(=O)N1CCCCC1	20	13

# Next entries.
cpd	molecule	BmaI1	BmaI1 counterscreen
16	COC(=O)Cc1cc(OC(C)=O)n(-c2ccc(F)cc2)n1	38	25
17	CCCCn1c(CCC)nc2ccccc21	1	-4
18	COc1ccc(N2CCN(c3cc(C)nc4ccc(OC)cc34)CC2)cc1	50	-12
19	CC(C)c1cccc(C(C)C)c1NC(=O)CNC(C)(C)C	6	2
20	CCOC(=O)c1c(NC(=O)CSc2nnc3sc4ccccc4n23)sc(C(=O)N(CC)CC)c1C	7	3
21	CCN(CC(=O)NCc1ccc(F)cc1)C(=O)c1cc(=O)[nH]c2ccccc12	2	6
22	CCOC(=O)c1c(C)[nH]c(C)c1C(=O)COc1ccc2c(c1)OCO2	16	-3
23	Cc1csc(SCc2c(C(=O)Oc3ccc(-n4cnnn4)cc3)oc3ccccc23)n1	12	8
24	O=C(O)c1sccc1-c1ccccc1	4	9
25	CC(OC(=O)Cc1n[nH]c(=O)c2ccccc12)C(=O)Nc1ccc(Cl)cn1 (configuration not stated)	-4	1
26	CC(=O)N1CCN(C(=O)c2ccc(-n3c(C)ccc3C)cc2)CC1	-10	-22
27	CCc1cc2c(COC(=O)c3ccc4c(c3)OCCO4)cc(=O)oc2cc1O	15	-1
28	Cc1cnc(C(=O)Nc2nc3ccccc3[nH]2)cn1	10	-4
29	CC(=O)N1CCN(Cc2nc3ccc(Cl)cc3n2CCO)CC1	12	16
30	Cc1noc(C)c1COC(=O)CSc1ncnc2sccc12	6	0

# Next entries:
cpd	molecule	BmaI1	BmaI1 counterscreen
31	O=C(COC(=O)c1ccc(-n2cnnn2)cc1)Nc1cc(-c2ccccc2)nn1-c1ccccc1	8	0
32	COCCN(Cc1nc2ccccc2c(=O)[nH]1)C(=O)c1ccc(C)cc1C	10	11
33	CN1/C(=C2\C=NN(C)P2(=O)Nc2ccccc2)C(C)(C)c2ccccc21 (configuration not stated)	14	5
34	COc1ccc(C)cc1NC(C)C(=O)NC(=O)NC1CCCCC1 (configuration not stated)	23	8
35	COCCn1c(SCC(=O)N2CCNC2=O)nc2ccccc21	10	2
36	COC(=O)CSC(C)c1nc2ccccc2c(=O)[nH]1 (configuration not stated)	2	-4
37	Cc1ccc(S(=O)(=O)NC(C(=O)O)C(C)C)cc1C (configuration not stated)	8	-2
38	CN1C(=O)N(C)C2NC(SCC(=O)O)=NC21 (configuration not stated)	13	12
39	CCC(C)(C)NCC(=O)Nc1ccc(OC(F)(F)F)cc1	10	12
40	COc1ccc(NC(=O)COC(=O)Cn2cnc3ccccc3c2=O)c(OC)c1	14	15
41	Cc1csc2nc(CN3CCCC3c3cccs3)cc(=O)n12 (configuration not stated)	4	-2
42	CCOC(=O)C1CCCN(CC(=O)/C=C2/N(C)c3ccccc3C2(C)C)C1 (configuration not stated)	6	6
43	CC(C)OC(=O)C1Cc2ccccc2CN1S(=O)(=O)c1cccs1 (configuration not stated)	18	10
44	C=CCc1ccc(O)c(-c2ccc(O)c(CC=C)c2)c1	53	57
45	CCOC(=O)c1sc(-c2ccc(C)cc2)cc1N	16	8

# An excerpt from above in order of molecular weight, lowest first.
cpd	molecule	BmaI1	BmaI1 counterscreen
38	CN1C(=O)N(C)C2NC(SCC(=O)O)=NC21 (configuration not stated)	13	12
32	COCCN(Cc1nc2ccccc2c(=O)[nH]1)C(=O)c1ccc(C)cc1C	10	11
42	CCOC(=O)C1CCCN(CC(=O)/C=C2/N(C)c3ccccc3C2(C)C)C1 (configuration not stated)	6	6
40	COc1ccc(NC(=O)COC(=O)Cn2cnc3ccccc3c2=O)c(OC)c1	14	15

# (listing goes on)
cpd	molecule	BmaI1	BmaI1 counterscreen
46	CCS(=O)c1ccccc1C(=O)OCc1cc(=O)oc2cc(C)c(C)cc12 (configuration not stated)	10	-3
47	O=C1CCCC2=C1C(c1ccccn1)C1=C(CCCC1=O)N2	8	4
48	O=C1CCC(C(=O)N2CCCC2c2nc3ccccc3s2)=NN1c1ccccc1 (configuration not stated)	5	2
49	COC(=O)C(C#N)c1nc2ccccc2nc1Cl (configuration not stated)	22	4
50	Cc1cccc(OCc2nnc(SCC(=O)c3cc(C)n(-c4ccc5c(c4)OCO5)c3C)o2)c1	6	1
51	COc1ccc(CC(=O)OCC(=O)Nc2ccc(N3CCOCC3)cc2)cc1	1	0
52	N#Cc1ccc(OCC(=O)N2CCOCC2)cc1	10	8
53	c1ccc(NCCNc2ncnc3sccc23)nc1	2	-6
54	COc1ccc(CNC2CC2)cc1	18	10
55	Cc1ccc2c(COC(=O)c3ccc(Cl)nc3)cc(=O)oc2c1	30	4
56	O=C(Nc1ccc(F)c(F)c1)c1cnn(-c2ccccc2)n1	54	8
57	Cc1ccc(CC(C#N)Sc2nc3ccccc3n2CCC#N)cc1 (configuration not stated)	8	6
58	CC1CC1C(=O)OCc1cc(=O)n2cc(Br)ccc2n1 (configuration not stated)	1	3
59	CC(=O)N(c1ccccc1)c1nc(CSc2nnc(Cc3cccs3)n2C)cs1	8	4
60	COc1cc(OC)cc(C(=O)N(C)CCc2ccc(OC)c(OC)c2)c1	14	12

# Further compounds.
cpd	molecule	BmaI1	BmaI1 counterscreen
61	O=C(N/N=C1\CCS(=O)(=O)c2ccc(F)cc21)c1ccc(O)cc1	18	14
62	O=C(CN1CCC(c2nc3ccccc3o2)CC1)Nc1cc(F)ccc1F	19	5
63	CC1(C)CC(=O)C2=C(C1)NC(=O)NC2c1c(O)ccc2ccccc12 (configuration not stated)	14	5
64	O=C(CN1C(=O)CCC1=O)NC(c1ccccc1)c1ccccc1	10	10
65	Cc1c(NC(=O)CC2(CC(=O)N3CCOCC3)CCCC2)c(=O)n(-c2ccccc2)n1C	16	14
66	O=C(CSc1ccc(S(=O)(=O)N2CCCCC2)cn1)N1CCCC1	4	-2
67	O=C(Nc1ccc(SC(F)F)cc1)C1=COCCO1	17	6
68	O=c1[nH]cnc2sccc12	-94	-70
69	CC1CN(C(=O)COC(=O)/C=C/c2ccc(C(F)(F)F)cc2)CC(C)O1 (configuration not stated)	-4	-8
70	NC(=O)c1cccc(CNC(=O)c2ccccc2C(N)=O)c1	2	0
71	O=C(NCCCN1CCOCC1)c1cc2sc3ccccc3c2s1	8	8
72	O=C(Nc1cc(C(F)(F)F)ccc1Cl)C1=COCCO1	-2	0
73	Cc1cc(C)n(CCCNCc2ccc(OCc3csc(C)n3)cc2)n1	16	13
74	Cc1ccc(-c2ccc(NC(=O)C3C4C=CC(C4)C3C(=O)O)cc2)o1 (configuration not stated)	27	40
75	CC(C(=O)N1CCc2ccccc21)N1CCN(S(=O)(=O)c2ccc(Cl)cc2)CC1 (configuration not stated)	12	8

# Other results:
cpd	molecule	BmaI1	BmaI1 counterscreen
76	OCCNc1nc2ccccc2n1Cc1ccccc1Cl	20	16
77	O=C(CCc1ccsc1)Nc1nc2ccccc2[nH]1	-4	-8
78	CC(C)(C)C(=O)COC(=O)c1ccc(S(=O)(=O)N2CCOCC2)cc1	5	8
79	O=C(CN1CCOCC1)N(C1CCCCC1)C1CCS(=O)(=O)C1 (configuration not stated)	2	-2
80	Nc1nc(SCC(=O)N(C2CCCCC2)C2CCS(=O)(=O)C2)nc2sc3c(c12)CCCC3 (configuration not stated)	33	12
81	O=C(COC(=O)C1CC1)c1ccc(Cl)s1	8	9
82	O=C(O)CCn1c(-c2cccs2)n[nH]c1=S	82	69
83	Cc1sc2ncnc(N3CCC(C(=O)OCC(=O)NC4CC4)CC3)c2c1C	14	4
84	CC1CN(C(=O)C(C)N2CCN(c3ncc(C(F)(F)F)cc3Cl)CC2)CC(C)O1 (configuration not stated)	4	-6
85	O=C(Cn1cnc2ccccc2c1=O)OCC(=O)N1CCOCC1	-9	-10
86	NCCc1cccc(Cl)c1	6	10
87	CCCSc1nc2c3ccccc3ncn2n1	19	6
88	Cc1ccc(C)c(N2N=C(C(=O)OCC(=O)NCc3ccco3)CCC2=O)c1	23	4
89	CCn1c(CN(C)Cc2cccc(F)c2)nc2cc(S(=O)(=O)N(C)C)ccc21	17	7
90	CCC(C)c1ccc(S(=O)(=O)NC(C)(C)CC)cc1 (configuration not stated)	6	8

# One compound at a time, from the list above:
# Listed for CC1CN(C(=O)C(C)N2CCN(c3ncc(C(F)(F)F)cc3Cl)CC2)CC(C)O1 (configuration not stated) : BmaI1 = 4; BmaI1 counterscreen = -6
# Listed for O=C(CN1CCOCC1)N(C1CCCCC1)C1CCS(=O)(=O)C1 (configuration not stated) : BmaI1 = 2; BmaI1 counterscreen = -2
# Listed for NCCc1cccc(Cl)c1 : BmaI1 = 6; BmaI1 counterscreen = 10

# Next results follow:
cpd	molecule	BmaI1	BmaI1 counterscreen
91	CC(NC(=O)CSc1ccc(S(=O)(=O)N(C)C)cn1)c1ccc2c(c1)OCCO2 (configuration not stated)	-3	1
92	O=C(CSc1ccccc1)Nc1nc2ccccc2[nH]1	10	6
93	Cc1ccc(Cn2c(N)c(C#N)c3nc(C#N)c(C#N)nc32)cc1	19	6
94	O=C(CCNC(=O)c1ccco1)Nc1cc(Cl)ccc1N1CCCCCC1	-2	-9
95	Cc1ccc(S(=O)(=O)NC(=O)N2CCCCCC2)cc1	18	10
96	CC(NC(=O)CSc1nnc2ccccn12)c1ccc2c(c1)OCCO2 (configuration not stated)	-8	-10
97	Cc1nnc(SC(C)C(N)=O)n1Cc1ccccc1 (configuration not stated)	10	-2
98	Cc1ccc(-n2c(C)cc(-c3csc(NC(=O)C(C)C)n3)c2C)cc1	-4	-2
99	O=C(Nc1ccc(N2CCCCC2)cc1)c1c(Cl)nc2sccn12	30	40
100	COc1cccc(C=C2C(=O)NC(=O)NC2=O)c1	-45	-73
101	O=C(NC1CCCc2ccccc21)c1cccnc1 (configuration not stated)	5	4
102	Nn1c(SCC2CCCCO2)nnc1-c1ccncc1 (configuration not stated)	10	20
103	CCN(Cc1ccccc1)C(=O)CSc1nnc(C)c(=O)n1N	1	2
104	COc1cc2c(cc1OC)[C@@]13CCN4CC5=CCO[C@H]6CC(=O)N2[C@H]1[C@H]6[C@H]5C[C@H]43	8	22
105	O=C(Nc1ccc2c(c1)nc1n2CCCCC1)c1ccc(S(=O)(=O)C(F)F)cc1	20	11

# The list continues.
cpd	molecule	BmaI1	BmaI1 counterscreen
106	Cc1cc(CSc2ccccc2C(=O)OCc2nc3sc4c(c3c(=O)[nH]2)CCC4)no1	9	-3
107	CC(NC(=O)CSc1nnc(-c2ccc(F)cc2)o1)c1ccc(Br)cc1 (configuration not stated)	12	4
108	Cc1nc(=S)[nH]c(C)c1CCC(=O)N1CCN(S(=O)(=O)c2ccc(F)cc2)CC1	59	42
109	CCC(c1nnc(SCC(=O)NC23CC4CC(CC(C4)C2)C3)o1)N(C)C (configuration not stated)	9	10
110	CC(C)C(=O)OCC(=O)Nc1ccc(S(=O)(=O)N(C)C)cc1	12	12
111	C/C(N)=C(/C#N)C(=O)CSc1nncn1-c1ccccc1	6	6
112	O=C(CN1CCN(S(=O)(=O)c2cccc(C(F)(F)F)c2)CC1)c1ccc[nH]1	9	-5
113	Cc1cccc(CSC(=N)N)c1	14	16
114	O=C(N/N=C(\Cc1ncc[nH]1)c1ccccc1)c1ccncc1	-1	-34
115	ON=C1CC2C3C/C(=N\O)C4C3CC2C14 (configuration not stated)	6	8
116	Cc1onc(-c2ccccc2)c1C(=O)N1CCCSC1=Nc1ccccc1	16	9
117	O=C(COC(=O)C1=NNC(=O)CC1)NCc1ccco1	-6	-6
118	Cc1cc(C(N)=O)c(C)n1-c1ccc(-c2nc3ccccc3[nH]2)cc1	17	16
119	Cc1noc(C)c1CSc1nnc(-c2ccc(F)cc2)c2ccccc12	14	8
120	Cc1cc(-n2c(C)cc(CNCC3(N4CCOCC4)CCCCC3)c2C)no1	12	-4
121	CCCCn1nnnc1COC(=O)c1c(-c2c(F)cccc2Cl)noc1C	4	0
